CtBP-E1A inh: qHTS Assay for Inhibitors of the CtBP/E1A Interaction; 340,000 tested, 0.49% active; activity change, % (concentration not given with the values); AID 651724, 2012; AlphaScreen GST-E1A/His-CtBP binding, 1536-well; active compounds read low; control for the full effect not named in the record; CtBP / adenovirus E1A interaction (AlphaScreen); in the data active means activity change below about -65%; inconclusive means about -30% to -65%; inactive means above about -30%; also: % is scaled to controls: 0 for no effect and ±100 for the full control effect
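In 5 uL wells, 23 nL compound meets equimolar GST-E1A and His-CtBP (5X stock 125 nM each) for 2 h, 37 °C. Beads (5X, 50 ug/mL) then 1 h, 37 °C, dark.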
Six1-Eya2 inh: qHTS Assay for Inhibitors of the Six1/Eya2 Interaction; AlphaScreen GST-Six1/His-Eya2 binding, biochemical; active compounds read low; control for the full effect not named in the record; activity change, % (test concentration not listed); 360,000 tested, 0.56% active; AID 651725, 2012; in the data active = activity change below about -65%; inconclusive = about -30% to -65%; inactive = above about -30%; also: % is scaled to controls: 0 for no effect and ±100 for the full control effect
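GST-Six1 + His-Eya2 (5X stock: 250/500 nM); Tris pH 8.0, 300 mM NaCl, 0.05% BSA, 0.02% Tween 20; GSH donor/Ni acceptor beads; 1 h 37 °C dark; AlphaScreen readout.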
D2 agonist: Beta-Arrestin HTS for Positive Allosteric Modulators of the Human D2 Dopamine Receptor: Agonists; activation, % (concentration not given with the values); DiscoveRx PathHunter D2 beta-arrestin, luminescence, 90 min; 100% = 57 uM dopamine signal; D(2) dopamine receptor (Homo sapiens), P14416; 360,000 tested, 0.084% active; in the data active = activation above about 40%; inconclusive = about 15% to 40%; inactive = below about 15%; also: compound concentration not given in the record; the text of the record calls up to 30% inactive
Target sequence (P14416 whole entry, looked up): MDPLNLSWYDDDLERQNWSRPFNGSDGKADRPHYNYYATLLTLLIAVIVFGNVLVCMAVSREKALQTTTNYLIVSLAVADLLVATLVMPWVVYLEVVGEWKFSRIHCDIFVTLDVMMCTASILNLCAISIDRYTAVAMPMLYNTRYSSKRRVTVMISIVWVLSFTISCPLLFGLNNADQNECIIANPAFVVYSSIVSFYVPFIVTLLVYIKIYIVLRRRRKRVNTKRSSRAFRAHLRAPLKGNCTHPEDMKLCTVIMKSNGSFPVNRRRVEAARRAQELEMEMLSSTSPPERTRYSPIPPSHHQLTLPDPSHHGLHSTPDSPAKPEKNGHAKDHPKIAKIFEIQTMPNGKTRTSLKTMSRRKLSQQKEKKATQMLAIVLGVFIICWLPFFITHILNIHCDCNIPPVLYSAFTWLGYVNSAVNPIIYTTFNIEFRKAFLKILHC
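Agonist mode: compounds alone added to overnight-plated D2 PathHunter cells for 90 min at 37 C, with 57 uM final dopamine (EC100) defining full response. Beta-arrestin recruitment detected by chemiluminescent reagent, read after 1 h at ambient temperature.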
PINK1 expr mod: A Quantitative High throughput Screen to Identify Chemical Modulators of PINK1 Expression. 410,000 tested, 0.2% active. Potency, µM (doses to about 76.6 µM), for the others: at the highest dose activation (PINK1 increase), hits mostly activators. PINK1 immunofluorescence, high-content cytometry, 24 h; active = well fitted activation curve with a large enough effect; inconclusive = small, poorly fitted or top-dose-only effect; inactive = flat fitted curve, though single readings scatter; cell line not stated here;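 also: potency is read from the fitted curve at half-maximal effect; % of control where 0% means no effect; nearly all actives have a fitted effect of over 65% in size; a mitochondrial uncoupler was the plate control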
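Readout is PINK1 immunofluorescence, quantified alongside mitochondrial, cell and nuclear markers by laser-scanning microplate cytometry. Cells from a stable line were exposed to compound titrations (5 concentrations) for 24 hours, with CCCP controls.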
TRPML1 ag: qHTS for Agonists of the Human Mucolipin Transient Receptor Potential 1 (TRPML1) | 410,000 tested, 0.12% active | activation, % (no concentration beside the values) | AID 624414, 2012 | Mucolipin-1 (Homo sapiens), Q9GZU1 | TRPML1-expressing cells, Ca2+ dye fluorescence, FDSS; host cell line not named in the record; reference of the full effect not given here; in the data active = activation above about 50%; inconclusive = about 30% to 50%; inactive = below about 30%; also: 0% is about no effect; the text of the record puts the active cut at 80%
Target sequence (Q9GZU1 whole entry, looked up): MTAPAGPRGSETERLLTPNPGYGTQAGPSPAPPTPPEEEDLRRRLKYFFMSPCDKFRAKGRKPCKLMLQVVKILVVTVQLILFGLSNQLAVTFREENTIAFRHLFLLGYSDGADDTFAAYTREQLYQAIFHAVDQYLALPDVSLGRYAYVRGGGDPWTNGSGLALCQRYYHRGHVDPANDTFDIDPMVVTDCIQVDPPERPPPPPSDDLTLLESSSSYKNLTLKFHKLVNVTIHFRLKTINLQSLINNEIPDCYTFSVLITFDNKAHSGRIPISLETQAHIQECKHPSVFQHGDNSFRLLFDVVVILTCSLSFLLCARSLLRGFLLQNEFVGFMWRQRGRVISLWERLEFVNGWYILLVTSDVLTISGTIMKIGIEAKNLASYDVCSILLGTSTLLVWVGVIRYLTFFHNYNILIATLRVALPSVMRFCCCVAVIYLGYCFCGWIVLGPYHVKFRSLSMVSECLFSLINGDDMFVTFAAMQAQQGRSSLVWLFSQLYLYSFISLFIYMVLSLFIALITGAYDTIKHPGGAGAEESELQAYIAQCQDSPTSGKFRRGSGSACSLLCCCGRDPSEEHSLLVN
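In this qHTS format, compounds were pin-transferred onto Ca8-dye-loaded TRPML1-DL cells induced with Tet overnight, and intracellular Ca2+ fluorescence was recorded kinetically for 110 s after a 10 s baseline. A subsequent 4uM final 54-4 (EC80) addition followed by a second 110 s read served as the antagonist phase.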
TRPML1 blocker: qHTS for Inhibitors of the Human Mucolipin Transient Receptor Potential 1 (TRPML1); TRPML1-inducible cells, Ca2+ dye fluorescence, FDSS; active compounds read low; inhibition of EC80 agonist-evoked calcium signal; activity change, negative = inhibition, % (no concentration beside the values); 390,000 tested, 0.02% active; AID 624415, 2012; in the data active means activity change below about -50%; inconclusive means about -30% to -50%; inactive means above about -30%;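 also: stimulus is agonist 54-4 at its EC80 concentration; % is scaled to controls: 0 for no effect and ±100 for the full control effect; compound concentration not given in the record; the text of the record puts the active cut at -80%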
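Calcium fluorescence in TRPML1-DL cells induced overnight with Tet: a 110 s read after compound pin addition, then a 110 s antagonist read after challenge with 54-4 at 4 uM final (EC80).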
Active calls of the source: *; ? = inconclusive; · = no result given; [ ] = dose if it differs, or a comment.

Screens in order: CtBP-E1A inh	PINK1 expr mod	D2 agonist	TRPML1 blocker	TRPML1 ag	Six1-Eya2 inh
Cc1ccc(NS(=O)(=O)c2ccc3c(c2)CC(=O)N3)cc1C
→ 0.9	2.3%	0.0	-10.3	0.0	-3.9
Cc1cc(O)c(C(C)C)cc1N=Cc1cc([N+](=O)[O-])ccc1O
→ -14.1	1.2%	3.9	·	·	1.1
COc1cccc(C(=O)OCC(=O)N2CCc3ccccc3C2)c1OC
→ 7.2	1.3%	-6.0	-11.9	-0.3	6.1
O=C(Nc1ccccc1Cl)Nn1cnnc1
→ 1.8	-0.5%	-0.2	23.9	0.1	-3.0
COc1cccc(N/C(SCc2ccccc2Cl)=C(/C#N)C(=O)NCc2cccs2)c1
→ -2.0	1.2%	-7.8	-10.4	4.0	-11.4
CCn1ncc(NC(=S)Nc2ccc(OC)c(OC)c2)c1C(N)=O
→ 0.0	-0.1%	-16.8	-3.4	-0.8	-24.1
CCN1CCN(S(=O)(=O)c2cccs2)CC1
→ 7.3	-1.3%[38.3 µM]	-1.7	-0.5	0.9	1.4
CCOc1ccc(CCNC(=O)c2cccc(Nc3nc4ccccc4nc3-n3nc(C)cc3C)c2)cc1OCC
→ ·	-0.8%	·	-2.3	-0.6	·
OCC#CCSc1nnc(-c2ccccc2Br)o1
→ -5.4	-5.5%[38.3 µM]	-1.5	-2.4	0.2	-1.7
O=C(CN1C2=NCCN2c2ccccc21)c1cccs1
→ 3.5	-0.7%	-2.4	-9.5	-0.2	3.9
c1ccc(-c2nn(-c3ccccc3)[n+](-c3ccccc3)n2)cc1
→ -2.6	0.2%	-7.2	-8.7	-0.2	0.3
COC(=O)c1cccc(Cn2c(Cl)c(/C=N/NC(=O)c3ccco3)sc2=O)c1
→ -16.7	4.0%	-1.0	17.1	1.5	-12.4
O=C(NCC1(c2ccccc2)CCCC1)c1ccccc1Br
→ 15.4	1.3%	-3.7	11.9	2.0	27.7
CC(=O)Nc1ccc(C(=O)OCCC(C)C)cc1
→ 2.7	-0.9%[38.3 µM]	-0.9	4.2	-0.4	0.6
COC(=O)c1ccc(COc2ccc(-c3nnn(CC(=O)NC(C)(C)C)n3)cc2)cc1
→ 7.3	14.2%	-0.8	2.1	-0.4	2.7
CCCN1CCN(CCCNC(=O)CN2C(=O)COc3ccc(C(C)(C)C)cc32)CC1
→ 1.0	-0.1%	0.5	-6.4	1.4	-2.1
Cc1cccc(N2CCN(Cc3nnc(-c4ccccc4C)o3)CC2C)c1 (stereo not drawn)
→ ·	-1.6%	·	-10.8	2.4	·
Cc1ccc(S(=O)(=O)N(C)CC(=O)N2CCCCCCC2)cc1
→ 1.9	-2.3%	-1.6	-15.6	0.0	7.1
COc1ccccc1NC(=O)Cn1cnc2c(cnn2-c2ccc(C)c(C)c2)c1=O
→ 0.3	?	0.0	19.9	-0.2	2.6
Cc1cccc(C)c1NC(=O)N1CC=C(n2c(=O)[nH]c3ccccc32)CC1
→ 0.0	0.9%	-5.7	3.8	-0.2	23.3
COC(=O)CCCC(=O)NC1CCCN(C2Cc3ccccc3C2)C1 (stereo not drawn)
→ 12.8	-0.1%	-3.9	-7.0	-0.3	-1.5
O=C(NCc1ccc(C(F)(F)F)cc1)C1CC(c2ccccc2C(F)(F)F)=NO1 (stereo not drawn)
→ 7.7	0.0%	-0.8	-2.7	1.4	10.0
CNc1nc2[nH]c(=O)c3c(c2s1)OC(N)=C(C#N)C3c1cccc(F)c1 (stereo not drawn)
→ -0.7	-0.2%	-3.0	17.2	5.0	-3.4
Cc1ccc(C(=O)CSc2nnc3c4ccccc4nc(C(C)(C)C)n23)cc1
→ -16.3	2.1%	-5.4	-6.8	-0.1	6.4
Cc1[nH]c(=S)c(C#N)c(C)c1Cc1ccccc1
→ 1.7	1.7%	-4.6	-8.1	2.1	5.4
CSc1cccc(NC(=O)C2CCCN(c3ncnc4c3nc3n4CCCCC3)C2)c1 (stereo not drawn)
→ 1.9	2.0%	5.4	6.2	2.1	-1.9
CC(C)n1nnnc1C1c2ccccc2C(=O)N1Cc1cccc(F)c1 (stereo not drawn)
→ 3.4	0.3%	·	·	-0.9	4.3
CC(C)(C)c1ccc(OCCCC(=O)Nc2cccc(S(=O)(=O)N3CCOCC3)c2)cc1
→ -2.0	25.4%	0.2	3.7	1.0	3.5
C=Cc1ccc(Cn2c(C(=O)O)c(CNCc3ccccc3)c3ccc(C)cc32)cc1
→ ·	5.3%	·	16.8	1.8	·
COc1ccc(-n2c(O)c(/C=N/Nc3nc(C)cc(C)n3)c3ccccc3c2=O)cc1OC
→ ?	0.5%	-2.5	21.9	-0.2	-24.8

Next section (two carried over from the part before).
Screens in order: CtBP-E1A inh	PINK1 expr mod	D2 agonist	TRPML1 blocker	TRPML1 ag	Six1-Eya2 inh
C=Cc1ccc(Cn2c(C(=O)O)c(CNCc3ccccc3)c3ccc(C)cc32)cc1
→ ·	5.3%	·	16.8	1.8	·
COc1ccc(-n2c(O)c(/C=N/Nc3nc(C)cc(C)n3)c3ccccc3c2=O)cc1OC
→ ?	0.5%	-2.5	21.9	-0.2	-24.8
CNC(=O)c1c(NC(=O)c2ccc(S(=O)(=O)N3CCCC(C)C3)cc2)sc2c1CCC2 (stereo not drawn)
→ ·	-1.8%	·	15.5	0.4	·
CC(C)(C)S(=O)(=O)N1Cc2cc(CO)cc(CCO)c2[C@H]1CCO
→ 4.5	0.1%	-2.2	-9.6	-0.9	-3.8
O=C(Nc1cc(C(F)(F)F)ccc1Cl)c1nc2ccccc2nc1N1CCCCC1
→ ·	1.0%	·	1.6	-0.7	·
CC1CCN(C(=O)CSc2nnc3c(n2)[nH]c2ccc(F)cc23)CC1
→ -14.2	8.7%	-3.9	-21.0	0.0	-21.5
CCN(CC)CCN1CCN(c2cncc(-c3cccc(N)c3)n2)CC1
→ -1.5	0.5%	-6.3	·	-0.4	1.3
COc1ccc(-c2nc3c(-c4ccc(F)cc4)cnn3cc2C)cc1F
→ -0.6	14.8%	-4.4	8.3	2.1	27.6
O=C(CSc1nnnn1-c1ccc(Cl)cc1)NC1CCS(=O)(=O)C1 (stereo not drawn)
→ ·	0.1%	-26.8	6.4	0.1	0.1
CCOC(=O)N1CCN(S(=O)(=O)/C=C/c2ccccc2)CC1
→ -12.5	·	-1.7	7.5	0.0	-10.2
O=C(Cc1cccc2ccccc12)N/N=C/c1ccc2cccc(O)c2n1
→ 22.8	7.7%	-1.5	-6.1	2.7	-0.7
COc1ccc(N2CCN(C(=O)C3CCCN(S(=O)(=O)c4ccc5c(c4)CCCN5C(C)=O)C3)CC2)cc1 (stereo not drawn)
→ ·	-0.4%	·	6.7	-0.7	·
O=C(NC(Cc1ccccc1)c1ccc2c(c1)OCCCO2)c1ccccc1 (stereo not drawn)
→ 2.9	?	-1.2	-4.2	2.9	-1.3
Cn1c(CN2CCOCC2)nnc1SCC(=O)Nc1ccc([N+](=O)[O-])cc1O
→ -6.9	2.3%	-11.1	35.7	2.6	6.1
COCCNC(=O)c1ccc(CS(=O)(=O)c2ccccc2C)o1
→ -23.0	0.5%	-2.0	6.0	0.8	-2.2
O=C1C(Cl)=C(NCC2CCCO2)C(=O)N1c1cccc(Cl)c1Cl (stereo not drawn)
→ 7.4	2.5%	-3.2	-2.5	1.5	11.6
O=C(CNS(=O)(=O)c1ccc(Br)cc1)NCc1ccncc1
→ 3.6	-0.4%	-1.9	-7.6	-0.7	8.4
COC(=O)c1ccc(C(=O)OC)c(NC(=O)COC(=O)c2ccc(OC)c(OC)c2OC)c1
→ 2.8	1.1%	-0.4	-7.3	1.4	1.0
CCNc1nc2nonc2nc1NCC
→ 3.7	3.0%	-0.7	-9.8	-0.8	-0.4
Cc1c(CN(C)C)c2c(n1C)C(=O)c1ccc(Br)cc1-2
→ 6.1	0.9%[38.3 µM]	-3.4	16.3	0.1	-28.8
COc1ccc(-c2cnc(C)o2)cc1S(=O)(=O)Nc1ccc(C)c(N(C)C)c1
→ ·	0.9%	·	14.8	-1.0	·
O=C(CSc1nc2c([nH]c3ccccc32)c(=O)n1-c1ccc(Cl)cc1)N1CCCCCC1
→ ·	?	·	18.5	2.3	·
Cc1ccccc1NS(=O)(=O)c1ccc2[nH]cc(C(=O)N3CCCCC3)c(=O)c2c1
→ ·	0.5%	·	-12.1	0.0	·
COc1ccc(-c2nc(SCC(=O)Nc3c(F)cccc3F)n[nH]2)cc1
→ -6.8	2.6%	1.4	17.2	1.8	-0.5
Cc1ccc(NC(=O)c2ccc(CNc3c(N4CCC(C)CC4)c(=O)c3=O)cc2)cc1
→ 3.6	14.2%	5.7	-15.4	0.7	0.8
Cc1cc2ccccn2c1C(=O)c1nc(N2CCOCC2)ncc1Cl
→ -8.3	2.2%[38.3 µM]	-1.8	-9.4	0.2	-18.5
CCOC(=O)N1CCN(C(=O)c2oc(=O)c3ccccc3c2-c2ccc(C)cc2)CC1
→ -13.0	-4.0%	-1.3	-17.6	2.3	0.8
c1ccc(-n2c(-c3cccs3)nc3nc4ccccc4nc32)cc1
→ 4.3	?	-9.5	4.1	-1.6	6.3
COc1ccc(C(=O)CSc2nc(C)cc(C)n2)cc1C
→ ·	6.6%	1.4	·	·	-1.0

An excerpt of these results, in CSV form:
molecule,CtBP-E1A inh,PINK1 expr mod,D2 agonist,TRPML1 blocker,TRPML1 ag,Six1-Eya2 inh
CC1CCN(C(=O)CSc2nnc3c(n2)[nH]c2ccc(F)cc23)CC1,-14.2,8.7%,-3.9,-21.0,0.0,-21.5
CCN(CC)CCN1CCN(c2cncc(-c3cccc(N)c3)n2)CC1,-1.5,0.5%,-6.3,·,-0.4,1.3

Reformatted with each value named: part of the list above
OCC#CCSc1nnc(-c2ccccc2Br)o1
  CtBP-E1A inh: -5.4
  PINK1 expr mod: -5.5%[38.3 µM]
  D2 agonist: -1.5
  TRPML1 blocker: -2.4
  TRPML1 ag: 0.2
  Six1-Eya2 inh: -1.7
COC(=O)c1ccc(COc2ccc(-c3nnn(CC(=O)NC(C)(C)C)n3)cc2)cc1
  CtBP-E1A inh: 7.3
  PINK1 expr mod: 14.2%
  D2 agonist: -0.8
  TRPML1 blocker: 2.1
  TRPML1 ag: -0.4
  Six1-Eya2 inh: 2.7
O=C(CSc1nc2c([nH]c3ccccc32)c(=O)n1-c1ccc(Cl)cc1)N1CCCCCC1
  CtBP-E1A inh: ·
  PINK1 expr mod: ?
  D2 agonist: ·
  TRPML1 blocker: 18.5
  TRPML1 ag: 2.3
  Six1-Eya2 inh: ·

Compound activity deposited in PubChem by National Center for Advancing Translational Sciences (NCATS).
